Mtb hypoxia inh = inhibitors of hypoxia-regulated fluorescent reporter in Mycobacterium tuberculosis; M. tuberculosis hypoxia-regulated fluorescent reporter, fluorescence; fluorescence inhibition, % (no concentration beside the values); hit rate 0.1% among 300,000; AID 1159583;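 active = 35 to 45% if threefold the growth effect, above 45% if 1.5-fold the growth effect; inactive = the rest, general growth blockers included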;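 note: wells of about 50 µL received 100 nL stock; 0% = vehicle wells and 100% = reference inhibitor wells; whole bacteria with a GFP reporter of the hypoxia response; strong numbers were not always called active; many hits fall short of the cut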
Bead autofluor = flagged as autofluorescent in microsphere protease counterscreen; fluorescence intensity (test concentration not listed); compound autofluorescence counterscreen, microsphere flow cytometry; active compounds read high; hit rate 3.1% among 360,000;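 active = at least 3 SD above the mean of all compounds, about 16000 in these data; inconclusive = too few beads counted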;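 note: 100 nL of 1 mM stock went into each well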
PrP 5UTR inh = inhibition of PrP 5' UTR reporter expression; cell-based PrP 5' UTR mRNA reporter, plate reader; hit rate 0.35% among 340,000; inhibition, % (no concentration beside the values);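 active = every replicate at 50% or more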;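 note: 0 = median of the neutral control wells; tested in H4 reporter cells; numbers are from one replicate; inactives centre near -14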
BJeLR lethal = kills HRASV12-expressing BJeLR cells. BJeLR (HRASV12) viability, CellTiter-Glo ATP luminescence, 48 h; reference of the scale not given here. inhibition, % (concentration not given with the values). hit rate 0.17% among 300,000. AID 1554;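 active = replicate mean above 50%; inconclusive = above 50% but judged a plate artefact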;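 note: 50 nL library stock added to about 25 µL; numbers are from one replicate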
Sa RN4220 lethal = S. aureus RN4220 growth inhibition; OD600, 16 h; hit rate 0.33% among 330,000; inhibition, % (no concentration beside the values);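 active = z-score of -3 or lower and OD600 up to 0.18 on both plates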;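 note: plate controls were untreated cells for no effect and reference antibiotic for full effect; stock transfer was 100 nL into about 80 µL; one replicate is shown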
ugtP null kill = kills S. aureus RN4220 lacking UgtP; S. aureus RN4220 ugtP deletion, OD600 growth, 16 h; some inactives read as strong as hits; hit rate 0.54% among 330,000; growth inhibition, % (no concentration beside the values);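 active = z-score under -3 and OD600 up to 0.15 on both plates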;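 note: plate controls were untreated wells for no effect and antibiotic for full effect; wells of about 80 µL received 100 nL stock; the first replicate is given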
Mtb hypoxia inh growth = further read-out of Mtb hypoxia inh, marked with its call; growth inhibition, %; measured here: M. tuberculosis growth (absorbance);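 0% = vehicle and 100% = reference antibiotic; read after six days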
* hit, by the source's call; ? = inconclusive; . = not tested or not shown; & = joins results of further samples.

SMILES	Mtb hypoxia inh	Mtb hypoxia inh growth	Bead autofluor	PrP 5UTR inh	BJeLR lethal	Sa RN4220 lethal	ugtP null kill
Cc1ccccc1-n1c(O)cc(=O)[nH]c1=S	5.9	2.8	2151	-11.2	-3.5	2.1	2.6
COCCSc1ccccc1C(=O)NCCc1ccccc1	-6.0	7.4	3776	-31.7	0.8	-1.4	2.4
COc1ccc(C)cc1NC(=O)c1ccc(NS(=O)(=O)c2cccs2)cc1	3.3	-0.3	4124	-21.6	-12.5	-1.4	-5.4
Cc1nc2ccccc2c(C)c1CC(=O)OC(C)C(=O)NC1(C#N)CCCCC1 (stereo unspecified)	1.5	7.9	?	-10.3	-1.7	4.5	7.2
O=C(CSC(=S)N1CCOCC1)Nc1nc(-c2ccccc2)c(-c2ccccc2)o1	-16.6	-0.6	6109	-3.5	-11.5	-6.9	7.3
O=C(CCn1c(=O)sc2ccccc21)NC1=NCCS1	7.3	4.1	8227	-9.5	-0.6	2.4	3.0
Cc1ccc(N2CC(C(=O)NC3CCC(C)CC3)CC2=O)cc1 (stereo unspecified)	4.4	9.2	6234	-13.6	1.4	0.3	2.1
CCOC(=O)C1=C(COc2ccccc2)NC(=O)NC1c1ccc2ccccc2c1 (stereo unspecified)	13.0	8.2	.	.	7.8	3.5	4.2
O=S(=O)(NCc1cccnc1)c1ccc(Cl)c(Cl)c1	16.0	22.1	3211	-7.7	-1.4	-8.7	-7.3
CC(C)COC(=O)N1CC(O)CC1C(=O)O (stereo unspecified)	14.0	6.5	8525	-47.0	-7.8	2.3	5.2
COc1ccc(NC(=O)ON=Cc2ccccc2)cc1	7.4	4.5	.	.	.	-0.1	-5.7
Cc1ccc2c(c1)C1CN(C)CCC1N2C(=O)c1cccnc1Cl (stereo unspecified)	5.7	1.6	4256	-24.2	0.8	1.4	-3.3
CCCN1CC=C2C(C#N)=C(N)C(C#N)(C#N)C(c3cccc(OC)c3OC)C2C1 (stereo unspecified)	3.1	7.9	8242	4.4	0.7	0.9	-3.0
CCc1ccccc1NC(=O)Cn1nnc(-c2cccs2)n1	-4.2	-1.5	5345	-19.5	0.7	1.2	7.4
Cc1ccccc1C(=O)NC1CCSC1=O (stereo unspecified)	2.7	3.5	4423	-6.6	8.3	4.0	6.0
O=C(O)C1CCCCC1C(=O)NCc1ccncc1 (stereo unspecified)	-2.7	0.0	2002	-18.4	17.7	3.0	6.0
CCCn1c(=O)c2c(c3ccccc31)OCC(=O)N2	.	.	4875	-3.1	9.1	2.9	6.8
CC(=O)Nc1ccc(NS(=O)(=O)c2ccccc2)c2ccccc12	-9.3	-0.6	3792	1.5	-6.4	2.9	2.9
CC(C)c1cccc(C(C)C)c1NC(=O)CCl	13.1	10.7	3464	-2.7	3.6	3.3	-2.5
N#Cc1c(NC(NC(=O)c2ccco2)C(=O)c2ccccc2)sc2c1CCCC2 (stereo unspecified)	7.2	1.0	4138	-12.6	7.5	12.4	22.6
CC1=C/C(=C(/c2cc(C)c(O)c(Br)c2)c2ccccc2S(=O)(=O)O)C=C(Br)C1=O	19.7&-8.0	-92.3&-32.8	3009	10.7	16.2	-8.6&-5.7	-6.7&-6.1
O=C(CCc1nc2ccccc2c(=O)[nH]1)OCC(=O)c1ccc(C2CCCCC2)cc1	1.1	-2.6	2519	-7.7	-7.7	-1.9	-3.8
COc1ccc(N2CCN(C(=O)CCNS(=O)(=O)c3ccc4c(c3)CCC(=O)N4)CC2)cc1	2.0	5.3	?	-19.5	.	4.7	10.9
C=CCn1c(SCC(=O)Nc2ccc(C)cc2C)nnc1-c1cccnc1	23.1	6.6	2588	-0.8	-5.5	-5.7	3.8
Cn1nc(C(F)(F)F)c(/C=N/OC(=O)c2ccccc2)c1Sc1ccc(Cl)cc1	.	.	2895	-1.2	4.8	.	.

Molecules shown so far containing an NH in an aromatic ring, in the order listed:
SMILES	Mtb hypoxia inh	Mtb hypoxia inh growth	Bead autofluor	PrP 5UTR inh	BJeLR lethal	Sa RN4220 lethal	ugtP null kill
Cc1ccccc1-n1c(O)cc(=O)[nH]c1=S	5.9	2.8	2151	-11.2	-3.5	2.1	2.6
O=C(CCc1nc2ccccc2c(=O)[nH]1)OCC(=O)c1ccc(C2CCCCC2)cc1	1.1	-2.6	2519	-7.7	-7.7	-1.9	-3.8

Remaining list, next part.
SMILES	Mtb hypoxia inh	Mtb hypoxia inh growth	Bead autofluor	PrP 5UTR inh	BJeLR lethal	Sa RN4220 lethal	ugtP null kill
CCOC(=O)C1=C(C)n2c(s/c(=C3\C(=O)Nc4ccccc43)c2=O)=NC1c1ccc(OC)cc1 (stereo unspecified)	.	.	1994	-22.8	7.6	.	.
CCn1c(C(=O)N2CCCC(C(=O)NCCc3ccc(C)cc3)C2)cc2sccc21 (stereo unspecified)	-8.3	1.3	10109	1.4	.	2.8	-3.5
Cc1cccc(C)c1NC(=O)NC1(C(=O)N2CCOCC2)CCCCC1	9.5	13.1	3765	-23.1	0.0	4.3	3.9
COCCCN(C(=S)Nc1cc(Cl)cc(Cl)c1)C(C)c1ccncc1 (stereo unspecified)	0.8	7.9	2413	8.1	-0.6	3.5	-28.2
O=C(Nc1cc(-c2ccccc2)cs1)c1ccco1	-5.7	-4.4	4784	-112.4	.	-0.3	7.6
COC(=O)c1ccc(COc2ccccc2C=NNC(N)=O)o1	0.9	2.0	.	.	.	3.2	-2.8
COc1ccc(CCNC(=O)COc2cc(=O)n(C)c3ccccc23)cc1OC	9.7	5.6	2266	-6.8	-2.0	1.5	-2.8
NS(=O)(=O)c1cc(C(=O)OCC(=O)c2ccccc2)c(Cl)cc1Cl	1.4	-2.0	5009	-31.8	-6.8	3.9	-0.3
COCC(=O)NC1CCN(S(=O)(=O)c2ccc(C(=O)O)cc2)CC1	2.1	8.6	20353*	-16.4	0.9	4.1	5.0
COC(=O)c1ccc(COc2ccccc2/C=C(\C#N)C(=O)NC(C)C)cc1	.	.	2788	-11.9	2.9	.	.
CC(=O)N1c2ccc(S(=O)(=O)NCC3CCC(C(=O)N4CCC(C)CC4)CC3)cc2CC1C (stereo unspecified)	3.7	4.3	6400	1.6	-1.8	5.9	11.1
O=C(NC1=NCCS1)c1cccc(N2C(=O)c3ccccc3C2=O)c1	16.0	9.8	3319	-13.5	0.1	4.2	4.3
COc1ccc(C(C)N2CC34C=CC(O3)C(C(=O)O)C4C2=O)cc1 (stereo unspecified)	6.6	3.4	4806	-23.8	-6.8	1.1	3.1
Cc1cc(C)c(C#N)c(SCC(=O)Nc2ccc3c(c2)OCO3)n1	5.5	10.2	3565	-38.9	-0.1	6.0	10.7
O=S(=O)(NC1CCCCC1)c1cccs1	2.4	-13.3	6121	-6.2	-6.9	1.6	3.0
Cc1cc(C(=O)NN=Cc2ccc(C)o2)c2ccccc2n1	12.0	4.2	.	.	.	4.5	-0.2
CC(C)Oc1ccccc1/C=N/Nc1ccccc1[N+](=O)[O-]	.	.	1725	-36.4	-2.8	.	.
CC(=O)c1cnc(SCCN2C(=O)c3ccccc3C2=O)nc1C	4.8	0.1	.	-8.5	-7.2	4.5	3.4
COc1cccc(C=Nn2c(C)nnc2C)c1OC	6.5	11.4	.	.	.	3.5	0.2
COc1ccc(CCNc2nc(-c3sc(N)nc3C)cs2)cc1OC	-4.7	2.7	2799	-12.9	-2.0	4.3	-9.7
CC(C)(C)c1ccc(C(=O)NCC(=O)NCC(C)(C)N2CCOCC2)cc1	-2.1	9.3	?	-9.6	.	0.2	-4.1
Cc1ccc(NC2=NC3(CCCC3)N=C(N)N2)c(C)c1	-2.0	0.7	3860	-8.5	3.9	4.4	5.8
Cc1ccc(NC(=O)C2CCN(S(=O)(=O)c3ccc4[nH]c(=O)ccc4c3)CC2)c(C)c1	.	.	6061	-50.5	-7.1	1.2	-1.5
COC(=O)CC1C(=O)NCCN1C(=S)Nc1cccc(C)c1 (stereo unspecified)	-2.4	-5.8	9980	3.2	9.0	0.5	5.0
CN1C(=O)CSC1=Nc1cccc(C(=O)O)c1	-6.5	-1.0	3896	-20.6	-5.8	-0.2	-1.0
The list goes on.
SMILES	Mtb hypoxia inh	Mtb hypoxia inh growth	Bead autofluor	PrP 5UTR inh	BJeLR lethal	Sa RN4220 lethal	ugtP null kill
CCOC(=O)c1ccc(NC(=O)c2ccc[n+]([O-])c2)cc1	0.5	4.6	3953	-13.7	-12.1	0.1	4.5
O=C(CSc1nc(C2CC2)nc2ccccc12)N1c2ccccc2Sc2ccc(C(F)(F)F)cc21	-1.9	-0.3	21370*	-5.3	-13.3	6.2	47.3
Cc1ccc(N(C(=O)CNC(=O)c2ccco2)C(C(=O)NC2CCCCC2)c2cccnc2)cc1 (stereo unspecified)	8.8	-2.3	6117	-5.0	-16.9	1.8	4.1
N#CCCN1CCN(C(=S)c2ccc(-c3cc(Cl)ccc3Cl)o2)CC1	2.3	10.2	8818	-9.2	-3.4	7.8	-7.3
COC(=O)c1ccccc1Sc1ncnc2onc(C)c12	8.8	5.5	4524	-5.5	-2.2	2.6	2.7
CCN(CC)c1ccc(S(=O)(=O)N2CCOCC2)cc1NC(=O)COC(=O)/C=C/c1ccc(O)c(OC)c1	8.4	9.5	3508	-3.1	.	10.1	0.4
CC(Sc1nnc(-c2cccs2)n1C1CC1)C(=O)NCC1CCCO1 (stereo unspecified)	4.2	4.7	3548	-22.2	.	2.3	-0.3
O=S(=O)(c1cccs1)N1CCC2(CC1)OCCN2S(=O)(=O)c1ccccc1	0.6	3.4	?	-3.2	1.4	6.6	2.3
O=C(CN(CCc1ccccc1)C(=O)CNS(=O)(=O)c1ccc(F)cc1)NCc1ccco1	.	.	5756	-24.0	-18.4	2.8	1.4
Cc1ccc(S(=O)(=O)N(C)c2ccc(C(=O)N3CCc4ccccc4C3)cc2)cc1	6.2	-1.5	4023	-12.7	-2.7	7.2	16.5
O=C(NCC1CCCO1)c1ccc(NC(=O)C2CCCCC2C(=O)O)cc1 (stereo unspecified)	.	.	4570	-6.4	4.7	1.5	-1.9
CC1CCN(CC(O)COC2CCC(C(C)(C)C)CC2)CC1 (stereo unspecified)	12.5	5.5	3129	3.7	.	-0.7	2.3
CCN(CC)C(=O)Sc1cccc2cccnc12	7.5	4.2	7864	-12.8	-6.1	1.2	8.2
CC1CCN(c2ccc3c(c2)S(=O)(=O)c2cccc(C(=O)NCc4cccc(F)c4)c2C3=O)CC1	-4.5	-7.1	3561	-6.8	.	10.5	8.3
C/C=C/c1ccc(OCCCCOc2ccccc2F)c(OC)c1	7.6	5.4	2053	-1.2	-1.0	10.0	69.6
FC(F)(F)c1cnc(Oc2ccccc2-c2nnc(-c3ccc(Cl)cc3)o2)c(Cl)c1	4.0	-4.7	2480	-14.1	0.0	-7.8	-12.8
Cc1ccc(NC(=O)CSCC(=O)N(CCC(C)C)c2c(N)n(Cc3ccccc3)c(=O)[nH]c2=O)cc1	1.5	0.5	.	-24.7	.	1.2	13.5
CCn1c(SC(C)C(=O)Nc2ccc(N3CCOCC3)cc2)nnc1C1CC1 (stereo unspecified)	-2.1	5.8	2931	3.9	.	-2.2	-2.6

Compounds from the list above that contain a Cl atom:
SMILES	Mtb hypoxia inh	Mtb hypoxia inh growth	Bead autofluor	PrP 5UTR inh	BJeLR lethal	Sa RN4220 lethal	ugtP null kill
O=S(=O)(NCc1cccnc1)c1ccc(Cl)c(Cl)c1	16.0	22.1	3211	-7.7	-1.4	-8.7	-7.3
Cc1ccc2c(c1)C1CN(C)CCC1N2C(=O)c1cccnc1Cl (stereo unspecified)	5.7	1.6	4256	-24.2	0.8	1.4	-3.3
CC(C)c1cccc(C(C)C)c1NC(=O)CCl	13.1	10.7	3464	-2.7	3.6	3.3	-2.5
Cn1nc(C(F)(F)F)c(/C=N/OC(=O)c2ccccc2)c1Sc1ccc(Cl)cc1	.	.	2895	-1.2	4.8	.	.
COCCCN(C(=S)Nc1cc(Cl)cc(Cl)c1)C(C)c1ccncc1 (stereo unspecified)	0.8	7.9	2413	8.1	-0.6	3.5	-28.2
NS(=O)(=O)c1cc(C(=O)OCC(=O)c2ccccc2)c(Cl)cc1Cl	1.4	-2.0	5009	-31.8	-6.8	3.9	-0.3
N#CCCN1CCN(C(=S)c2ccc(-c3cc(Cl)ccc3Cl)o2)CC1	2.3	10.2	8818	-9.2	-3.4	7.8	-7.3
FC(F)(F)c1cnc(Oc2ccccc2-c2nnc(-c3ccc(Cl)cc3)o2)c(Cl)c1	4.0	-4.7	2480	-14.1	0.0	-7.8	-12.8
